Source: PubChem BioAssay (several laboratories)
VCAM-1 up imaging = enhancers of VCAM-1 display on endothelial cells, imaging, high-content imaging, pooled HUVEC, TNFa stimulus (AID 457) | hit rate 0.2% among 10,000 | calls only | Pooled HUVEC, TNFa-induced VCAM-1 immunofluorescence imaging; hits of this screen are not shown here;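 active = a top-ranked rise in VCAM-1 staining upheld on image or statistical review; inactive = the rest, including candidates rejected on review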;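 also: compounds tested at 5 µM in the well; cells exposed to compound for 24 hours before fixing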
VCAM-1 imaging = inhibitors of TNFa-induced VCAM-1 surface display, imaging, high-content imaging, pooled HUVEC, TNFa stimulus (AID 456) | HUVEC TNFa-induced VCAM-1 surface expression, immunofluorescence imaging; numbers were filed only for top-ranked candidate wells | one-dose inhibition, % at 5 µM; IC50 in µM for titrated hits | hit rate 0.2% among 10,000;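 active = top tenth filtered wells with inhibition above zero that passed visual or statistical confirmation; inactive = the rest, including hits rejected on review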;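 also: 0% = stimulated vehicle wells and 100% = unstimulated cells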
FPR binder = binds the human formylpeptide receptor FPR; FPR-expressing cells, fluorescent ligand binding, flow cytometry; inhibition, %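 (tested at 6.7 µM)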; hit rate 0.74% among 24,000;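 also: 0% = buffer wells and 100% = receptor blocker peptide wells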
Target sequence (P21462 whole entry, looked up): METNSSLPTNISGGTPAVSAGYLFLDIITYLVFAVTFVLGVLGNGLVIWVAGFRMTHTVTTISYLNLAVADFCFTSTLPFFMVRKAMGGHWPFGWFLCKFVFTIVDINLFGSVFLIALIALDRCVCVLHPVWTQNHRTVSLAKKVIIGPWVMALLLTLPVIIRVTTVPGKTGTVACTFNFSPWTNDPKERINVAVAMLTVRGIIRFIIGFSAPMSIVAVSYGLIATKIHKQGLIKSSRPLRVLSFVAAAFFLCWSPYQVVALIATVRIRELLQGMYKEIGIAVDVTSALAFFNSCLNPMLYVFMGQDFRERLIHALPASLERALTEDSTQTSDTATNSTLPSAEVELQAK
FPRL1 ligand = human FPRL1 ligand, with FPR counter-screen | inhibition, %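 (tested at 6.7 µM)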 | hit rate 0.3% among 24,000 | P25090 | FPRL1-expressing cells, fluorescent ligand binding inhibition, flow cytometry;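 also: 0% = buffer alone and 100% = receptor blocker peptide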
Target sequence (P25090 whole entry, looked up): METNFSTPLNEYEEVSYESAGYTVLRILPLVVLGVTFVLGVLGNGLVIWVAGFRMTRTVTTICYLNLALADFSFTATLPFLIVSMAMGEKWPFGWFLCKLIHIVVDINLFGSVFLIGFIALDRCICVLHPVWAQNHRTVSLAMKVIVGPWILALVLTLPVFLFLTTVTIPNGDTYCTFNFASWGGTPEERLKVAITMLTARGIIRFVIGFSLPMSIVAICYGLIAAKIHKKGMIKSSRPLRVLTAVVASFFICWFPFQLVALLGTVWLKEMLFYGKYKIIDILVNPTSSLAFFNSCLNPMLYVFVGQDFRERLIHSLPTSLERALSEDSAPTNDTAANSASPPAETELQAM
VCAM-1 down = suppression of endothelial VCAM-1 upregulation – cell-based, plate reader, pooled HUVEC, TNFa stimulus (AID 454); HUVEC TNFa-induced VCAM-1 surface immunofluorescence, plate reader; numbers were filed only for top-ranked candidate wells; inhibition, % at 5 µM; hit rate 0.2% among 10,000;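 active = compound among top-ranked inhibitors of TNF-induced VCAM-1 adhesion protein staining, with the hit upheld by image or statistical review; inactive = the rest, including hits rejected on review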;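 also: 0% = TNFa with vehicle and 100% = cells without TNFa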
An asterisk follows results filed as active; i = inactive; . = no result given.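 The calls were made as follows, unless noted: active = mean above 30%; inconclusive = self-fluorescent; inactive = the rest.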 The list is partial (hit frequency here may not be typical).

SMILES	VCAM-1 up imaging	VCAM-1 imaging	FPR binder	FPRL1 ligand	VCAM-1 down
N#Cc1c2n(c(=S)n(-c3ccccn3)c1=O)CCCCC2	i	i	0.0	2.9	i
CCSc1nnc(NC(=O)C(Cc2ccccc2)n2cccc2)s1 (stereo not drawn)	.	.	-11.5	-0.1	.
CC1CCc2nn(CC(=O)NCCCN3CCCC3=O)cc2C1 (stereo not drawn)	.	.	-2.1	0.7	.
CN1CCN(C(=O)C2CC(=O)N(c3ccc(F)c(Cl)c3)C2)CC1 (stereo not drawn)	.	.	8.1	6.3	.
CCC(C)NC(=O)c1ccc(CS(=O)(=O)c2ccc(OC)cc2)o1 (stereo not drawn)	.	.	-2.0	-2.5	.
CN(CCC#N)C(=O)c1ccc(CNS(=O)(=O)c2ccc(F)cc2)cc1	.	.	-2.5	0.0	.
O=C(c1cc2ccccc2c(=O)o1)N1CCc2ccccc2C1	.	.	-5.1	5.7	.
O=C(O)c1ccc2c(c1)C(=O)N(c1ccc(Cl)cn1)C2=O	i	i	2.7	0.2	i
CCSC1(SCC)N=C(N)C2(C#N)C(c3ccc(OC)c(OC)c3OC)C12C#N (stereo not drawn)	.	.	-0.9	-2.4	.
CN(C)C=NCCn1c(N2CCOCC2)nc2c1c(=O)n(C)c(=O)n2C	.	.	-6.9	2.7	.
Cc1cccc(N2CCN(C(=O)COc3cc(=O)n(C)c4ccccc34)CC2)c1C	.	.	-7.7	-6.6	.
COc1ccc(C2NC(C(=O)O)CS2)cc1COCC(F)(F)F (stereo not drawn)	.	.	-2.5	-1.7	.
CC1(C)CC(=O)C=C(Nc2ccc(F)cc2)C1	i	i	-10.7	-5.2	i
CCOc1cc2[nH]c(=O)n(Cc3ccc(C(=O)NCCOC)cc3)c(=O)c2cc1OCC	.	.	-0.6	6.3	.
CCn1c(=O)cc(OCC(=O)Nc2ccc(C)cn2)c2ccccc21	.	.	0.0	0.2	.
Cc1ccc(S(=O)(=O)NCC(=O)OCN2C(=O)c3ccccc3C2=O)cc1	i	i	-1.0	7.0	i
COc1ccc(C2CC(c3ccc(Cl)cc3Cl)Nc3nc(N)nn32)cc1OC (stereo not drawn)	.	.	6.7	5.5	.
O=C(C1CCCN(S(=O)(=O)c2cccc3cccnc23)C1)N1CCc2ccccc21 (stereo not drawn)	.	.	10.1	-1.8	.
COc1ccc(Nc2cc(=O)n(C3CCCCC3)c(=O)[nH]2)c(OC)c1	.	.	5.6	1.1	.
CCc1ccc(Cn2nnc(C(=O)Nc3cccc(C)c3)c2N)cc1	.	.	2.9	-1.2	.
Cc1ccc(-c2csc3nnc(SCC(=O)NCc4ccco4)n23)cc1	i	i	16.8	5.7	i
O=C(Nc1nc2ccccc2[nH]1)c1ccccc1F	.	.	-2.0	-7.7	.
Cc1nc2ncnn2c(C)c1CCC(=O)NCc1ccco1	.	.	-5.4	10.7	.
CCOC(=O)NC(c1ccccc1)C1CCCCC1=O (stereo not drawn)	i	i	5.2	-4.8	i
CCOC(=O)c1oc2c(CN3CCN(C)CC3)c(O)ccc2c(=O)c1-c1ccccc1OC	i	i	6.7	0.9	i
Cc1ccc(C)c2[nH]c(=O)c(CCNC(=O)c3ccc(Br)o3)cc12	i	i	7.1	0.5	i
Cc1nc(N2CCc3ccccc32)[nH]c(=O)c1CCC(C)C	i	i	-5.7	-6.5	i
COc1ccc(OC)c(C2N(c3cc(C)on3)C(=O)C3CCCN32)c1 (stereo not drawn)	.	.	2.3	-3.8	.
Cc1cc2cc(CCNC(=O)c3ccc(Br)o3)c(=O)[nH]c2cc1C	.	.	3.1	0.4	.
COC(=O)c1cc2ccsc2n1CC(=O)N1CCCc2ccccc21	.	.	-9.8	-4.2	.
CCOc1cc(CNC(=O)CN2C(=O)c3ccccc3S2(=O)=O)ccc1OC	.	.	2.7	-1.8	.
CC(O)Cc1nsc(NC(=O)c2ccc(Br)o2)n1 (stereo not drawn)	.	.	-3.3	-7.8	.
COc1cccc2cc(C(C)N(CCCN3CCOCC3)C(=O)Nc3ccc(Cl)cc3)oc12 (stereo not drawn)	.	.	0.8	-5.0	.
Cc1ccc(-n2nnc3c(=O)n(CC(=O)N4CCCC4)cnc32)cc1	.	.	-3.8	0.5	.
O=C(Cn1cccc1C(=O)c1ccccc1)NCc1ccco1	.	.	7.7	5.3	.
CCC(C(=O)NC1CCCC1)N(Cc1ccco1)C(=O)Cn1nnc(-c2ccc(C)cc2)n1 (stereo not drawn)	i	i	-0.4	-1.6	i
Cc1ccccc1Cn1cc(NC(=O)c2cc(-c3cccs3)on2)cn1	.	.	-2.3	0.2	.
CN(C)c1nc(N)nc(-c2nc3ccccc3s2)n1	i	i	0.6	-8.6	i
CC(=O)Nc1cccc(NC(=O)CSc2nnnn2C(C)C)c1	i	i	-4.8	-3.9	i
Cc1cc(Nc2c(C)cccc2C)n2nc(C)nc2n1	.	.	-2.3	-0.9	.

Next part, starting with the last five of the part before.
SMILES	VCAM-1 up imaging	VCAM-1 imaging	FPR binder	FPRL1 ligand	VCAM-1 down
CCC(C(=O)NC1CCCC1)N(Cc1ccco1)C(=O)Cn1nnc(-c2ccc(C)cc2)n1 (stereo not drawn)	i	i	-0.4	-1.6	i
Cc1ccccc1Cn1cc(NC(=O)c2cc(-c3cccs3)on2)cn1	.	.	-2.3	0.2	.
CN(C)c1nc(N)nc(-c2nc3ccccc3s2)n1	i	i	0.6	-8.6	i
CC(=O)Nc1cccc(NC(=O)CSc2nnnn2C(C)C)c1	i	i	-4.8	-3.9	i
Cc1cc(Nc2c(C)cccc2C)n2nc(C)nc2n1	.	.	-2.3	-0.9	.
Brc1cccc(C2CC(c3ccccc3)n3nnnc3N2)c1 (stereo not drawn)	.	.	12.4	16.4	.
NC(=O)c1sc2nc(N3CCCCC3)c3c(c2c1N)CCCC3	i	i	-7.5	-11.9	i
O=C(C1CCN(c2nnnn2-c2ccccc2)CC1)N1CCN(c2ccccc2)CC1	i	i	-5.3	-1.0	i
Cc1ccc(C)c(N2CCN(CC(=O)Nc3ccc4[nH]c(=O)[nH]c4c3)CC2)c1	.	.	-9.5	-7.5	.
Cc1cc(C)n(CCCNC(=O)c2ccc3c(c2)NC(=O)CS3)n1	i	i	2.3	8.6	i
CCOC(=O)N1CCC(NC(=O)CCc2c(C)nc3ncnn3c2C)CC1	.	.	-7.4	0.5	.
COC(=O)C1CCN(c2cc(=O)n(-c3ccccc3Cl)c(=O)[nH]2)CC1	.	.	-4.6	-3.1	.
CCC1(C(=O)O)NC(c2cc(OC)ccc2O)C2C(=O)N(Cc3ccccc3)C(=O)C21 (stereo not drawn)	.	.	8.6	2.0	.
CCOC(=O)C1=C(C)NC(=O)NC1c1ccc(Br)s1 (stereo not drawn)	i	i	-0.3	-0.3	i
CCCn1c(=O)c2ccccc2n2c(SCCOc3ccccc3F)nnc12	i	i	-5.2	10.2	i
Cc1cc(C)cc(OCC(O)CN2C(=O)NC(C)(C)C2=O)c1 (stereo not drawn)	.	.	2.0	-0.2	.
c1ccc(Nc2nc3ccccc3n3cnnc23)cc1	.	.	1.6	-7.0	.
Cc1cc(NC(=O)CSc2ncnc3ccccc23)no1	.	.	-6.9	-1.5	.
Cc1ccccc1CS(=O)(=O)Cc1ccc(C(=O)NCCCN2CCCC2=O)o1	.	.	1.3	-5.2	.
CC(=O)N1CCCc2cc(S(=O)(=O)N(CC(C)C)CC(C)C)ccc21	.	.	1.5	-3.3	.
Cc1cccc(-c2c3c(=O)n(C)c(=O)n(C)c3c3c(C)cc(C)nn23)c1	.	.	8.8	24.8	.
Cc1ccc(Cl)cc1N1CCN(S(=O)(=O)c2ccc3c(c2)oc(=O)n3C)CC1	.	.	-1.9	-6.7	.
CC1C(=NO)C(C)C(c2ccc(N(C)C)cc2)NC1c1ccc(N(C)C)cc1 (stereo not drawn)	.	.	-2.0	-2.7	.
COc1ccc(C(C(=O)NC2CCCCC2)N2CCC3(CC2)OCCO3)cc1 (stereo not drawn)	i	i	-1.6	0.8	i
COC(=O)c1sc(S(=O)(=O)N2CCC(C)CC2)c(C(=O)OC)c1C	.	.	-0.1	0.9	.
O=C(O)Cn1nc2ccccc2n1	i	i	6.6	-0.1	i
N#CCCSc1ccccc1NC(=O)c1ccc(S(=O)(=O)N2CCCC2)cc1	.	.	0.6	-2.5	.
CC(C)c1nnc(NC(=O)c2ccc(N3C(=O)CCC3=O)cc2)s1	i	i	10.2	-0.8	i
CCOC(=O)c1cccc(NC(=O)C2CCCN(S(=O)(=O)c3c(C)n[nH]c3C)C2)c1 (stereo not drawn)	.	.	-3.5	0.2	.
COc1cccc(C2CC(c3ccccc3Cl)n3nnnc3N2)c1 (stereo not drawn)	.	.	-5.8	-4.1	.
C=CCc1cc(C)ccc1OCC(O)CN1CCN(c2ccccc2)CC1 (stereo not drawn)	.	.	8.3	-8.5	.
COc1ccc(C(=O)NCc2ccccc2OC)cc1	i	i	-2.1	-2.1	i
CCOCCOC(=O)CCSc1n[nH]c(=O)[nH]c1=O	.	.	6.1	3.8	.
CNC(=O)CN1C(=O)C2C3C=CC(C3)C2C1=O (stereo not drawn)	.	.	10.8	15.4	.
COc1ccc([C@@H]2Sc3ccccc3N(CCN(C)C)C(=O)[C@@H]2OC(C)=O)cc1	i	i	-2.8	0.0	i
O=C(CCSc1nc(-c2ccc3c(c2)OCO3)cc(C(F)(F)F)n1)NCc1ccco1	.	.	-2.8	6.1	.
COc1ccc(OC)c(-c2nnc(SCC(=O)N3CCOCC3)o2)c1	.	.	-0.5	-1.0	.
COc1ccc(NC(=O)C2c3cc(OC)c(OC)cc3C(=O)N(C)C2c2cccnc2)cc1OC (stereo not drawn)	.	.	-0.1	-0.3	.
c1ccc(N2CCN(c3nc4ccccc4n4nnnc34)CC2)cc1	.	.	-32.1	-24.1	.
Cc1ccc(NC(=O)C2C3C=CC4(CN(Cc5cccnc5)C(=O)C24)O3)cc1 (stereo not drawn)	.	.	-6.9	6.1	.
CCOC(=O)CNc1c(-c2ccc(F)cc2)nc2cnccn12	.	.	-17.6	1.4	.
O=C(CN1CCN(C(=O)c2ccccc2F)CC1)Nc1ccc(Br)cc1	.	.	2.8	-4.2	.
CCNC(=O)CC1C(=O)N(c2ccc(OC)cc2)C(=O)N1Cc1ccc(OC)cc1 (stereo not drawn)	.	.	-7.3	-8.0	.
O=C(CSc1nc(O)c(C2CCCCC2)c(=O)[nH]1)NCC1CCCO1 (stereo not drawn)	.	.	5.6	0.3	.
COc1cc(C(=O)NCCc2nc3ccccc3n2C)cc(OC)c1OC	.	.	1.7	7.9	.
O=C(NCc1ccc2c(c1)OCO2)c1cc2c(s1)CSC2	.	.	7.6	1.9	.
COCCNS(=O)(=O)c1cccc2cccnc12	.	.	0.2	12.3	.
Cc1cc(C)n2c(SCC(=O)Nc3cc(C)on3)nnc2n1	i	i	5.5	1.5	i
O=C1N=c2ccccc2=C1c1sc(=S)n(CC2CCCO2)c1O (stereo not drawn)	.	.	21.4	28.8	.
COc1cc(OC)c(NC(=O)CS(=O)(=O)Cc2nc(-c3ccc(C)cc3)oc2C)cc1Cl	.	.	0.3	-3.1	.
CCOc1ccc(/C(O)=C2/C(=O)C(=O)N(CCCn3ccnc3)C2c2cccs2)cc1Cl (stereo not drawn)	.	.	7.1	-3.7	.
CCC(C)OC(=O)c1[nH]c2c(c1C)C(=O)CC(c1ccc(N(C)C)cc1)C2 (stereo not drawn)	i	i	2.1	-2.9	i
COc1cccc(N2CCN(C(=O)c3ccc(N4C(=O)NC5CC4(C)Oc4ccccc45)cc3)CC2)c1 (stereo not drawn)	.	.	1.9	-3.4	.
CC1=C(/C=C/C(C)=C/C=C/C(C)=C/C(=O)O)C(C)(C)CCC1	i	i	-3.3	-1.7	i
CCOCCCNC(=O)C(c1ccc(C)cc1)N(Cc1ccc2c(c1)OCO2)C(=O)CNC(C)=O (stereo not drawn)	.	.	9.4	4.9	.
Cc1ccc(S(=O)(=O)Nc2nc3ccccc3nc2NCc2ccco2)cc1	i	i	-3.1	2.3	i
COc1ccc(OCc2nc(N)nc(Nc3cccc(C)c3C)n2)cc1	i	i	-4.6	-9.5	i
N#Cc1c(NC(=O)c2ccc(Br)o2)n(-c2ccccc2)c2nc3ccccc3nc12	i	i	16.0	0.0	i
O=C(CCn1c(=O)oc2ccccc21)N1CCN(c2ccccc2Cl)CC1	i	i	2.8	3.2	i
CC(=O)NC1CC2CCCC(C1)N2CC(=O)Nc1ccccc1 (stereo not drawn)	i	i	-7.7	2.2	i
O=C(NCCN1CCN(Cc2ccccc2)CC1)C1CC(=O)N(C2CCCC2)C1 (stereo not drawn)	.	.	-0.4	4.3	.
COc1cccc(OCC(=O)Nc2ccccc2C(N)=O)c1	i	i	-3.5	1.2	i
